High-throughput results from PubChem BioAssay.
TRPML1 blocker: blocks the human TRPML1 channel; Q9GZU1; TRPML1-inducible cells, Ca2+ dye fluorescence, FDSS; active compounds read low; inhibition of EC80 agonist-evoked calcium signal; activity change, negative = inhibition, % (test concentration not listed); 0.02% of 390,000 active; in the data active means activity change below about -50%; inconclusive means about -30% to -50%; inactive means above about -30%;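 note: stimulus is agonist 54-4 at its EC80 concentration; % is set by controls: 0 for no effect and ±100 for the full control effect; compound concentration not given in the record; the text of the record puts the active cut at -80%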
Target sequence (Q9GZU1 whole entry, looked up): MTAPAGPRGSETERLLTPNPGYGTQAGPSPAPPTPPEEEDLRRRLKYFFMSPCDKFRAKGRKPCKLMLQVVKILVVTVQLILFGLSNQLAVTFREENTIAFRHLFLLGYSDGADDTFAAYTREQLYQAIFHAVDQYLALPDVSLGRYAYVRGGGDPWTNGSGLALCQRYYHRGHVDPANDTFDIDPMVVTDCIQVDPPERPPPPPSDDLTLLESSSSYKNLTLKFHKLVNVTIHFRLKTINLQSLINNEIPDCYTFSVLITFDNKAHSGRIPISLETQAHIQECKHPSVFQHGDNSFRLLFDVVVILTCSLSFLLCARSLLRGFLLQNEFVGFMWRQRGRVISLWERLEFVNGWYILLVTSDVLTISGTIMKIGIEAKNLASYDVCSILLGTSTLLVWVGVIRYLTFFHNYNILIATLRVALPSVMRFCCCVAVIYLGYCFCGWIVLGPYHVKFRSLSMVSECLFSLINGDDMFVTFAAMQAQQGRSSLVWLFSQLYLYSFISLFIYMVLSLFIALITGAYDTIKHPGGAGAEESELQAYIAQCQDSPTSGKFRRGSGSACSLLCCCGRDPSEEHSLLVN
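TRPML1-DL cells, Tet-induced overnight (~16 h, 37 °C) at 1,500 cells/well, were loaded with Ca8 no-wash dye plus quencher for 45-90 min at room temperature. Compounds were pinned during FDSS kinetic reading; agonist 54-4 at EC80 (4 uM final) then added.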
D2 ag: agonists of human D2 dopamine receptor (beta-arrestin); P14416; DiscoveRx PathHunter D2 beta-arrestin, luminescence, 90 min; 100% = 57 uM dopamine signal; activation, % (no concentration beside the values); 0.084% of 360,000 active; AID 624465; in the data active = activation above about 40%; inconclusive = about 15% to 40%; inactive = below about 15%; note: compound concentration not given in the record; the text of the record calls up to 30% inactive
Target sequence (P14416 whole entry, looked up): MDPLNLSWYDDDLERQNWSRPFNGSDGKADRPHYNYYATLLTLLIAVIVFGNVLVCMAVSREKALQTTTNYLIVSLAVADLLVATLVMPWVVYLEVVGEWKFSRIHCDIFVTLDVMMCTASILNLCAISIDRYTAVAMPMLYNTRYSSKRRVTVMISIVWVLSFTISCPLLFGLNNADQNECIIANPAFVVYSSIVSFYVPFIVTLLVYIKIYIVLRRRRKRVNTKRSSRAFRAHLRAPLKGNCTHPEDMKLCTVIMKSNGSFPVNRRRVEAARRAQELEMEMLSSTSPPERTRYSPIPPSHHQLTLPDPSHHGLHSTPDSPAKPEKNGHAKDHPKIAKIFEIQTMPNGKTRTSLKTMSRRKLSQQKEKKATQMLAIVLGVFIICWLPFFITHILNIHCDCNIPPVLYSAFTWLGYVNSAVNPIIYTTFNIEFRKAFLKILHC
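DiscoveRx PathHunter D2 beta-arrestin cells (2,100/well) attached overnight, then compound-stimulated 90 min at 37 C in HBSS/10 mM HEPES/0.1% Tween-20 buffer; beta-galactosidase complementation read by luminescence after 1 h at ambient temperature. Dopamine 57 uM final (EC100) as control.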
PINK1 modulator: modulators of PINK1 expression | PINK1 immunofluorescence, high-content cytometry, 24 h | Potency, µM (titrated, usually from 76.6 µM), inactives show top-dose activation (PINK1 increase), usual class: activators | 0.2% of 410,000 active | AID 624263; active = well fitted activation curve with a large enough effect; inconclusive = small, poorly fitted or top-dose-only effect; inactive = flat fitted curve, though single readings scatter; cell line not stated here;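 note: potency is the fitted concentration of half-maximal effect; % of control where 0% means no effect; nearly all actives have a fitted effect of over 65% in size; a mitochondrial uncoupler was the plate control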
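A stable cell line was treated with compounds at 5 concentrations for 24 hours, with CCCP as control. PINK1 levels and mitochondrial localization were measured by immunofluorescence with mitochondrial, cell and nuclear markers after fixation, read by laser-scanning cytometry.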
TRPML1 agonist: human mucolipin-1 channel agonism. activation, % (test concentration not listed). Q9GZU1. 0.12% of 410,000 active. TRPML1-expressing cells, Ca2+ dye fluorescence, FDSS; host cell line not named in the record; reference of the full effect not given here; in the data active = activation above about 50%; inconclusive = about 30% to 50%; inactive = below about 30%; note: 0% is about no effect; the text of the record puts the active cut at 80%
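Agonist activity was taken from a 110 s kinetic Ca2+ dye read on the FDSS after pinning compounds onto TRPML1-DL cells. The cells were seeded at 1,500/well with Tet inducer, incubated about 16 h, then dye-loaded at room temperature.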
D2 potentiator: positive allosteric modulators of human D2 dopamine receptor. DiscoveRx D2 beta-arrestin cells, luminescence, 90 min; 100% = 57 uM dopamine signal. potentiation, % (no concentration beside the values). 0.23% of 360,000 active. AID 624464; active = potentiation of 50% or more; inconclusive = 30% to 50%; inactive = 30% or less;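 note: compound concentration not given in the record; tested on top of an EC20 dose of dopamine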
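PathHunter D2 cells, attached overnight at 37 deg C, received compound in DMSO plus dopamine at EC20 (50 nM final) for 90 min at 37 deg C. Beta-arrestin recruitment was read as luminescence after 1 h with detection reagent at ambient temperature.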
Six1-Eya2 inh: Six1/Eya2 interaction inhibition; Q15475+O00167; AlphaScreen GST-Six1/His-Eya2 binding, biochemical; active compounds read low; control for the full effect not named in the record; activity change, % (test concentration not listed); 0.56% of 360,000 active; in the data active = activity change below about -65%; inconclusive = about -30% to -65%; inactive = above about -30%; note: % is set by controls: 0 for no effect and ±100 for the full control effect
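AlphaScreen with GST-Six1 and His-Eya2 (5X mix: 250 nM and 500 nM), glutathione donor and nickel acceptor beads; buffer 50 mM Tris pH 8.0, 300 mM NaCl, 1 mM TCEP; 1 h at 37 C in the dark.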
* hit, by the source's call; ? = inconclusive; nt = not tested or not shown; [ ] = dose if it differs, or a comment.

SMILES | TRPML1 blocker | D2 ag | PINK1 modulator | TRPML1 agonist | D2 potentiator | Six1-Eya2 inh
Cc1cc(C)c(S(=O)(=O)N2CCN(C(=O)c3ccc4c(c3)OCO4)CC2)c(C)c1 | 15 | -3.0 | -1.2% | -1.5 | -6 | -8
COc1ccc(-n2c(=O)c3sc4ccccc4c3n(C)c2=O)cc1 | 8 | nt | -0.1% | -0.2 | nt | nt
Cc1nc2ccn(Cc3cccnc3)c(=O)c2cc1C(=O)NCc1ccc(Cl)cc1 | -13 | nt | 0.1% | 0.7 | nt | nt
COc1ccc(OC)c(N2C(=O)C(Cl)=C(N3CCCCC3)C2=O)c1 | -11 | 0.4 | -0.8%[38.3 µM] | -0.2 | 4 | -4
COc1ccccc1NC(=O)C(=O)Nc1ccc2c(c1)N(C(=O)C1CC1)CCC2 | 32 | -4.0 | ? | -0.5 | 7 | 2
COc1ccc(CNC(=O)C2CC(c3cc(C(F)(F)F)cc(C(F)(F)F)c3)=NO2)cc1 (stereo not given) | -6 | 3.1 | 8.5% | 0.5 | -8 | 8
O=C(CSc1nccn1Cc1ccc2c(c1)OCO2)Nc1ccccc1F | -11 | nt | 11% | 1.0 | nt | nt
O=C(NCC(c1ccco1)N1CCN(c2ccccc2F)CC1)c1ccc2c(c1)OCO2 (stereo not given) | 3 | 1.7 | 4.7% | 0.5 | -13 | -8
CC(C)(C)C(=O)Nc1nnc(CSCc2ccccc2F)s1 | -11 | -2.2 | 0.9% | -0.1 | -17 | 0
COc1ccc(/C(N)=N/OC(=O)Cc2cccs2)cc1OC | -6 | -1.2 | 3.1% | 0.8 | -6 | 1
COc1ccc(NCc2nc3ccccc3n2CCOc2ccccc2C)cc1 | -6 | nt | -0.3% | 0.6 | nt | nt
COc1ccc(C)cc1NC(=O)CSc1ncc2c(n1)-c1ccc(Cl)cc1N(Cc1ccccc1)S2(=O)=O | -4 | nt | 1.4% | -0.6 | nt | nt
Cc1ccc(C)c(NC(=O)CCN2CCN(C)CC2)c1 | -14 | 1.8 | -1.2% | 0.1 | -9 | 2
Nc1n[nH]c(S(=O)(=O)CCCc2ccccc2)n1 | -5 | -2.2 | 1.6% | -0.6 | 29 | 2
CCc1nc2c(OCC(N)=O)cccn2c1N(C)C(=O)c1ccc(OC)cc1 | nt | 4.9 | 2.0% | -0.1 | -5 | 12
CCC(OC(=O)c1nsc(Cl)c1Cl)C(=O)NCc1ccco1 (stereo not given) | -9 | -1.4 | -1.9% | 2.6 | 15 | 2
Cc1cccc(-n2cc(-c3ccc([N+](=O)[O-])cc3)[nH]c2=S)c1 | -5 | -0.5 | 3.1% | 0.7 | -6 | 3
COc1ccc(C(=O)COc2ccc(F)cc2)c(O)c1 | 2 | -3.0 | -0.4% | -0.3 | 2 | 3
Cc1ccc(CC(=O)Nc2cccc([N+](=O)[O-])c2)cc1 | 17 | -8.4 | -0.2% | 0.8 | -4 | -9
O=c1nc(-c2ccccc2)cc(-c2ccccc2)[nH]1 | -15 | -4.7 | -3.7% | 0.4 | -9 | -2
Cc1ccc2oc(-c3cccc(NC(=O)C4CCCO4)c3)nc2c1 (stereo not given) | -8 | -0.6 | 0.0%[38.3 µM] | -0.4 | -7 | -2
COc1ccc(C(=O)NCC(c2cccnc2)N2CCN(c3ccccc3OC)CC2)cc1 (stereo not given) | 11 | nt | 0.0% | 0.6 | nt | nt
COc1ccc(/C=C(/NC(=O)c2ccccc2)C(=O)N/N=C/c2ccncc2)c(OC)c1 | -7 | 2.7 | 0.6% | -0.6 | -4 | -6
O=C1NC(=Nc2ccccc2)c2ccc([N+](=O)[O-])cc21 | 8 | -0.5 | 14% | 0.2 | 1 | -6
COc1ccc(N(C)S(=O)(=O)c2cccc(C(=O)OC(C)C(=O)NC3CCCCC3C)c2)cc1 (stereo not given) | 2 | 6.6 | 8.9% | 3.1 | -10 | 3
CCCCN(C=O)c1c(CC)nc2ccc(C(=O)N3CCN(c4ccccc4)CC3)cn12 | ? | -2.6 | 0.3% | -0.2 | -8 | 4
COc1cc(OC)c(-c2nn3c(C4CCCCC4)nnc3s2)cc1OC | 10 | 3.0 | 1.0%[38.3 µM] | 2.2 | -8 | -3
CCN(CC)c1ccc(S(=O)(=O)N2CCOCC2)cc1NC(=O)COC(=O)/C=C/c1ccc(O)c(OC)c1 | 9 | 3.0 | 2.7% | 0.9 | ? | 7
CC1=C(C)C(=O)C(CCCCC#CCCCC#CCO)=C(C)C1=O | 9 | 4.6 | 1.5% | 1.0 | -5 | 0
COc1ccccc1OC(C)C(=O)Nc1ccc2c(c1)OCCO2 (stereo not given) | 0 | 0.8 | 3.2% | 0.2 | -5 | 2

Sorted by SMILES length (lowest first): part of the list above.
SMILES | TRPML1 blocker | D2 ag | PINK1 modulator | TRPML1 agonist | D2 potentiator | Six1-Eya2 inh
CC1=C(C)C(=O)C(CCCCC#CCCCC#CCO)=C(C)C1=O | 9 | 4.6 | 1.5% | 1.0 | -5 | 0
O=C1NC(=Nc2ccccc2)c2ccc([N+](=O)[O-])cc21 | 8 | -0.5 | 14% | 0.2 | 1 | -6
COc1ccc(C(=O)NCC(c2cccnc2)N2CCN(c3ccccc3OC)CC2)cc1 (stereo not given) | 11 | nt | 0.0% | 0.6 | nt | nt
COc1ccc(N(C)S(=O)(=O)c2cccc(C(=O)OC(C)C(=O)NC3CCCCC3C)c2)cc1 (stereo not given) | 2 | 6.6 | 8.9% | 3.1 | -10 | 3

(cont.)
SMILES | TRPML1 blocker | D2 ag | PINK1 modulator | TRPML1 agonist | D2 potentiator | Six1-Eya2 inh
O=C(O)c1[nH]c2ccccc2c1C(c1cc(Br)ccc1O)c1c(C(=O)O)[nH]c2ccccc12 | -4 | -5.6 | 1.0% | -0.9 | -10 | -6
CC(C)[C@H](NS(=O)(=O)c1ccc(Cl)cc1)C(=O)OCC(=O)c1c(N)n(C)c(=O)n(C)c1=O | 1 | 4.6 | -1.1% | -0.2 | 3 | 0
COc1ccc(OC)c(NC(=O)CN2C(=O)C3(OCCCO3)c3ccccc32)c1 | -10 | -2.1 | 5.8%[38.3 µM] | 0.6 | -19 | -5
O=Cc1ccc(N2CCCC2)c([N+](=O)[O-])c1 | 0 | -3.6 | 2.8% | -0.9 | -4 | -10
COc1ccnc(Oc2ccc(F)cc2)c1C(=O)N/C=N/OCc1ccc(F)cc1Cl | 32 | 2.0 | nt | 3.0 | 1 | 1
Cc1ccc(NC(=O)c2ccccc2-c2ccccc2C(=O)O)cc1 | 6 | -1.4 | -1.0% | -0.1 | 5 | 6
COc1cccc(NC(=O)CNS(=O)(=O)c2ccc3nc(C)sc3c2)c1 | -5 | -3.5 | -1.3% | -1.6 | -15 | -1
O=C(Cn1cc([N+](=O)[O-])cn1)NCc1ccc(-n2cccn2)cc1 | -9 | -2.9 | -1.1% | 0.0 | -9 | -4
Cc1cccc(N(Cc2ccccc2)C(=O)c2ccc(C)c(S(=O)(=O)N3CCOCC3)c2)c1 | 12 | -1.0 | -1.6% | 1.7 | -1 | -8
CN(C1CCCCC1)S(=O)(=O)c1ccc(=S)[nH]c1 | -7 | -0.2 | -0.6% | 0.0 | -20 | 1
CCOC(=O)C1=C(c2ccccc2)NC(SCC(=O)Nc2ccc(C)cc2)=C(C#N)C1c1ccco1 (stereo not given) | -2 | 0.4 | ? | 1.3 | -7 | -10
O=C(/C=C/c1ccccc1)Nc1nc(-c2ccncc2)cs1 | 34 | 7.8 | 2.3% | 2.3 | -2 | -1
CCOC(=O)Nc1ccc2c(c1)N(C(=O)CN1CCN(C)CC1)c1ccccc1CC2 | -7 | 2.1 | 3.4% | 0.7 | -1 | 3
CC(C)NC(=O)NNC(=O)Cn1nnc(-c2cccc(Cl)c2Cl)n1 | 41 | 1.5 | -1.0% | 0.4 | -3 | -6
COc1ccccc1NS(=O)(=O)c1ccc(/C=C/C(=O)O)cc1 | 0 | 3.8 | -2.6% | 1.3 | -4 | -1
Cc1ccc(C2(C(F)(F)F)NC(=O)N3CCN=C3S2)cc1 (stereo not given) | 1 | 0.6 | 0.5%[38.3 µM] | -0.8 | -2 | -1
Cc1cc(Br)cnc1NC(=S)Nc1ccc(F)cc1F | 2 | -0.9 | ? | -0.6 | -2 | 10
Cc1nn(C)c(C)c1/C=N/NC(=O)C(C)(C)Oc1ccc(Cl)cc1 | 14 | -3.7 | 2.4%[38.3 µM] | 2.8 | 14 | 2
CN1CCN(C(=O)c2ccc3c(c2)N(Cc2c(F)cccc2Cl)C(=O)c2ccccc2S3)CC1 | 9 | nt | 3.8% | 0.1 | nt | nt
CCN(CC)c1ccc(NC(=O)COC(=O)C2CCN(c3ccc(C(F)(F)F)cn3)CC2)cc1 | 24 | -1.4 | -2.6% | 0.6 | 8 | ?
Cc1cc(C)nc(NC(=O)NS(=O)(=O)Nc2ccc(Br)cn2)n1 | -1 | -3.1 | 3.3% | 0.4 | -17 | 3
Nn1c(SCC(=O)N2CCCc3ccccc32)nncc1=O | 9 | 1.7 | 5.8% | -0.7 | -7 | 3
O=C(N/N=C/c1cccs1)c1ccc2ccccc2c1 | 44 | 1.1 | ? | -0.5 | -18 | -6
CC1(c2nnc(-c3cccc(Cl)c3)o2)CC(c2ccc(C#N)cc2)=NO1 (stereo not given) | 18 | -3.8 | -0.9% | -0.7 | -14 | 1
CCN1CCC(=NNC(=O)CC23CC4CC(CC(C4)C2)C3)CC1 | 18 | -3.6 | -0.7% | -0.6 | -20 | -2
O=C(Nc1cccc2ncccc12)c1ccco1 | ? | 1.1 | -0.2% | -0.1 | 2 | 0
CCOC(=O)c1ccccc1NC(=O)c1nn(-c2ccc(OC)c(Cl)c2)c(=O)c2c1c1ccccc1n2C | 13 | nt | -0.6% | -1.0 | nt | nt
O=C(O)CCC(=O)N(Cc1ccco1)C1CC(=O)N(c2ccccc2)C1=O (stereo not given) | 4 | -6.9 | 0.4% | -0.1 | -10 | 2
COc1cc(C(=O)NCCC(=O)NC2CCCCC2)cc(OC)c1OC | 1 | 0.4 | 0.8% | -0.9 | -9 | 4
Cc1ccc(C(=O)N/C(=C\c2ccc(-c3ccccc3[N+](=O)[O-])o2)C(=O)NCCN(C)C)cc1 | -6 | 12 | 0.5% | 1.1 | -9 | -11
Cc1ccc(OCC(=O)Nc2ccc3c(c2)C(=O)NC3=O)c(C)c1 | 19 | -0.5 | 1.2% | 2.1 | -15 | -12
O=C(Nc1ccc(Cl)cc1C(=O)Nc1ccc(Br)cn1)c1ccco1 | -2 | -2.3 | 1.8%[38.3 µM] | 3.1 | -9 | 0
N#CCCN(Cc1cccnc1)S(=O)(=O)c1ccc(S(=O)(=O)NC2CCCCC2)cc1 | 11 | -1.1 | -1.8%[38.3 µM] | 4.5 | -6 | 2
Cc1ccc(C(=O)NCCc2ccc(S(N)(=O)=O)cc2)o1 | 9 | 4.7 | 5.9% | 0.1 | 0 | 4
C=C1CC[C@@H]2[C@](C)(CCC[C@@]2(C)/C=C/[C@@H](O)C(C)(C)O)[C@H]1CC(=O)NCCS(=O)(=O)O | -2 | 0.4 | 1.5% | 1.0 | 3 | 2
COc1ccc2[nH]c(=O)c(CNc3ccccc3)cc2c1 | 4 | -1.6 | -1.6% | 0.5 | -2 | -2
